# Resorufin autofl: compounds fluorescent in resorufin spectral region; max dye-equivalent concentration, M; Compound fluorescence, resorufin region 547/598 nm, buffer; active compounds read high; 0.04% of 59,000 active; AID 588; active = above 10 nM dye equivalent; inconclusive = 1 to 10 nM; inactive = 1 nM or less; a few of its hits are not listed in these tables; note: highest value over a series up to 38 µM
#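 Read-out: intrinsic compound fluorescence at ex 547/em 598 nm after 15 min at RT in pH 8.0 Tris (100 mM). Values expressed as resorufin-equivalent concentration from per-plate standard series.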
# AID923: qHTS Assay for Allosteric/Competitive Inhibitors of Caspase-1: Spectroscopic Profiling in AFC Spectral Region; compound fluorescence, AFC spectral region (405/520 nm); almost no hit is shown here; Potency, µM (doses to about 57.5 µM), inactives show at the top dose fluorescence increase, hits mostly activators; 1.1% of 75,000 active; active = well fitted activation curve with a large enough effect; inconclusive = small, poorly fitted or top-dose-only effect;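 note: potency is the fitted concentration of half-maximal effect; 0% is about no effect; scaled to a free AFC standard on each plate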
#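 Baseline compound fluorescence (AFC region, 405 nm ex/520 nm em) taken from the intercept of kinetic reads with 50 nM caspase-1 and 5 uM Ac-WEHD-AFC; normalized to an on-plate AFC standard curve; compounds titrated up to 57 uM.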
# TSHR ag: activates the human thyroid stimulating hormone receptor | HEK293-CNG-TSHR cells (CNG channel as cAMP sensor), membrane potential dye, cAMP | AID 926 | 0.48% of 73,000 active | Potency, µM (series often up to 57.1 µM), for inactives: at the highest dose activation, most hits filed as activators | P16473; active = well fitted activation curve of enough size with the parental cells flat; inconclusive = any curve in the parental cells; inactive = parental cells flat and receptor cells flat or falling; note: potency is the fitted concentration of half-maximal effect; % of control where 0% means no effect; weak receptor curves with flat parental cells got no call and are not listed
# Target sequence (P16473 whole entry, looked up): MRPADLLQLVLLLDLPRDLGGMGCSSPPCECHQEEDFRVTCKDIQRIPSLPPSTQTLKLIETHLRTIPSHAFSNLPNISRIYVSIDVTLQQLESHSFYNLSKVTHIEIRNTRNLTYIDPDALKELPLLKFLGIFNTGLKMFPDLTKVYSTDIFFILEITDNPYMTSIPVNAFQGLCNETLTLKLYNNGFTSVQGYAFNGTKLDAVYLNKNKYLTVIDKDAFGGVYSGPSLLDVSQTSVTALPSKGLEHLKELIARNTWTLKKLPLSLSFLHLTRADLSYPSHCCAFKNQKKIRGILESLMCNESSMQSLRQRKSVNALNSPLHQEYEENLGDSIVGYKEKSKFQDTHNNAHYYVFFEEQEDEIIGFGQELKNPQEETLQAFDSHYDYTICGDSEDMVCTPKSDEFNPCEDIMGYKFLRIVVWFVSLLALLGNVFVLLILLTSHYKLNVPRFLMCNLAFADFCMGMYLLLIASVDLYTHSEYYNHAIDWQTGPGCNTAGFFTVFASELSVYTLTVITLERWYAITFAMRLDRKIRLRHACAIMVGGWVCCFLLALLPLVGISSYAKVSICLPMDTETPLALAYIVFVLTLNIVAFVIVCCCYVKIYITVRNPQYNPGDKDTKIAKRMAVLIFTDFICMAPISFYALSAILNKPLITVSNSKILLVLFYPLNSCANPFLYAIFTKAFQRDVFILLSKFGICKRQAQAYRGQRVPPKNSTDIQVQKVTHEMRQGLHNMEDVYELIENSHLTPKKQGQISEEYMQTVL
#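 cAMP rise detected as CNG-channel membrane depolarization by fluorescent dye (emission 590 nm), 30 min after compound, following 60 min dye loading containing 100 uM RO 20-1724 at room temperature. Cells: TSHR/CNG HEK 293, with parental CNG HEK 293 as control.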
# A647 fluor: compound autofluorescence in A647 spectral region; Compound fluorescence, A647 channel (570/671 nm), Tris buffer; max dye-equivalent concentration, M; 59,000 tested, under 10 active; active means above 1 µM dye equivalent; inconclusive means 0.1 to 1 µM; inactive means 0.1 µM or less;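 note: values scaled relative to a standard on each plate; highest value over a series up to 38 µM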
#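 Each compound's intrinsic fluorescence at 570 nm excitation and 671 nm emission is measured across its concentration series in 100 mM Tris, pH 8.0, after 15 min at room temperature, and reported relative to an A647 curve.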
# A488 autofl: A488 region autofluorescence; 0.1% of 59,000 active; max dye equivalency, M; compound autofluorescence, A488 spectral region, dye equivalency; active compounds read high; active = above 10 nM dye equivalent; inconclusive = 1 to 10 nM; inactive = 1 nM or less; about half of its hits are not listed in these tables;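 note: highest value over a series up to 38 µM; compound alone in buffer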
#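 Spectroscopic profiling in the A488 region: compounds in pH 8.0 Tris (100 mM), 15 min RT, CCD imaging with 480 nm excitation and 540 nm emission; responses normalized against A488 dye standards.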
# An asterisk follows results filed as active; i = inactive; ? = inconclusive; . = no result given; [ ] = another dose, or the depositor's remark.
SMILES,Resorufin autofl,AID923,TSHR ag,A647 fluor,A488 autofl
COc1ccc(NC(=O)CCNC(=O)Cn2ccc3ccccc3c2=O)c(OC)c1,i,-0.3%,0%,1e-09,i
CN/C(=C/[N+](=O)[O-])NCCSCc1ccc(CN(C)C)o1,i,.,.,1e-09,i
Nc1nc2n(n1)C(c1cccs1)CC(c1ccc(Br)cc1)N2 (stereo not drawn),i,.,.,1e-09,i
CCOc1cc(N2CCOCC2)c(OCC)cc1NC(=O)c1nc2nccc(C)n2n1,i,-0.7%,-26%,3.3e-09,i
Cn1nnc(C(O)CNCc2cccs2)n1 (stereo not drawn),i,-0.4%,?,3e-08,i
COc1cc2nc(C3CCC3)n(NC(=O)C(OC(C)=O)c3ccccc3)c(=O)c2cc1OC (stereo not drawn),i,-0.1%,?,1e-09,i
CC(C)CC1(C(=O)NCc2ccccn2)C=CCN1C(=O)c1ccccc1 (stereo not drawn),.,2.9%,?,.,.
CS(=O)(=O)N1CCC(C(=O)NCCN2CCN(Cc3ccccc3)CC2)CC1,i,0.4%,?,1e-08,i
Cc1cc(C)n(-c2nncn2NC(=O)c2ccc(Cl)cc2O)n1,i,-5.2%,-1%,1.5e-08,i
Nc1nonc1C(=O)OCC(=O)N1CCCCC1,i,-1.0%,0%,1.5e-08,i
O=C(OCc1cccc2ccccc12)c1ccc2c(=O)[nH]c(CN3CCOCC3)nc2c1,i,0.1%,?,1e-09,i
COc1ccc(CC(=O)Nc2ccc3c(c2)CCC3)cc1S(=O)(=O)N1CCOCC1,i,-2.1%,-9%,8.1e-09,i
CC1(C)Cc2c(sc3ncn4nnnc4c23)CO1,i,.,.,7.2e-08,i
CCC1(C)Cc2ccccc2/C(=C/C(=O)N2CCCCC2)N1 (stereo not drawn),i,0.0%,?,3.8e-09,i
CCCCC(=O)Nc1cccc(-c2nc3ncccc3o2)c1,i,2.0%,9%,1e-09,i
Clc1ccc(Br)cc1-c1nc(-c2ccncc2)no1,i,-0.3%,17%,5.9e-08,i
CCCn1c(C)nc2c(NCCCN(C)C)nc(C)nc21,.,0.3%,6%,.,.
CCOC(=O)CNC(=O)Nc1nnc(-c2ccc(OCC)cc2)o1,i,-0.6%,?,1e-09,i
CC1(C)CC(=O)c2cnc(NC(=O)c3ccco3)nc2C1,i,3.9%,-9%,1.5e-08,i
CC#CCOC(=O)C1=CCCN(C)C1,.,0.4%,8%,.,.

# A draw from above in order of number of heavy atoms, lowest first.
SMILES,Resorufin autofl,AID923,TSHR ag,A647 fluor,A488 autofl
Cn1nnc(C(O)CNCc2cccs2)n1 (stereo not drawn),i,-0.4%,?,3e-08,i
Nc1nc2n(n1)C(c1cccs1)CC(c1ccc(Br)cc1)N2 (stereo not drawn),i,.,.,1e-09,i
COc1ccc(CC(=O)Nc2ccc3c(c2)CCC3)cc1S(=O)(=O)N1CCOCC1,i,-2.1%,-9%,8.1e-09,i

# (further entries)
SMILES,Resorufin autofl,AID923,TSHR ag,A647 fluor,A488 autofl
COc1ccc(S(=O)(=O)N2Cc3ccccc3CC2C(=O)N2CCOCC2)cc1 (stereo not drawn),i,0.3%,4%,3.2e-08,i
COC(=O)c1ccccc1N1C(=O)[C@@H]2C(c3ccc(F)cc3)=NO[C@@H]2C1=O,i,6.3%,.,1.3e-08,i
N#Cc1c(SCC(N)=O)nsc1SCc1ccc(Cl)cc1,i,.,.,3.3e-08,i
Cc1sc2nc(SC(C)C)nc(N)c2c1C,.,0.9%,12%,.,.
COc1ccccc1-c1cc(N(C)Cc2ccco2)ncn1,i,1.0%,.,1e-09,i
CCC/C=C(\CCC)C(NC(=O)c1ccc(-c2ccccc2)cc1)c1ccc(C(=O)OC)cc1 (stereo not drawn),.,-2.2%,6%,.,.
Cc1sc2nc3c4ccccc4c(NCc4ccco4)nn3c(=O)c2c1C,i,15%,8%,3e-08,i
CCOc1ccc(N(Cc2cc3ccc(C)cc3[nH]c2=O)C(=O)COC)cc1,i,-0.2%,11%,3.9e-09,i
O=C(Nc1ccccc1Cl)c1cnccn1,i,3.8%,0%,1e-09,i
N#Cc1cccc(NC(=O)N2CCCC3(CCN(C(=O)c4ccncc4)CC3)C2)c1,i,0.5%,3%,3.9e-09,i
Cn1c(C(=O)O)c(CC(=O)NCC2COc3ccccc3O2)c2ccccc21 (stereo not drawn),i,1.2%,6%,1e-09,i
CCCCOC(=O)C1C2C=CC3(CN(CCc4ccccc4)C(=O)C13)O2 (stereo not drawn),.,1.6%,0%,.,.
COc1ccc(OC)c(NC(=O)CSc2nnc(-c3ccco3)n2-c2ccc(C(=O)O)cc2)c1,i,.,.,3.8e-08,i
Cn1c(SCc2nn[nH]n2)nc2c1c(=O)n(Cc1ccccc1Cl)c(=O)n2C,i,0.9%,6%,1e-09,i
COC(=O)c1cc(NC(=O)C2CC2)cc(C(=O)OC)c1,i,1.4%,2%,2.8e-09,i
Cc1ccc(CC2CC(=O)N(c3cc(C)on3)C2=O)cc1 (stereo not drawn),.,-0.1%,-17%,.,.
c1cc(-c2nnc3sc(C4CCCCC4)nn23)ccn1,i,.,.,2.5e-09,i
CC1(C)Cc2c(sc3c2c2ncnn2c2nnc(SCC(=O)NCc4ccco4)n32)CO1,i,0.9%,-4%,3.2e-08,i
COc1ccc(Br)cc1-c1noc(-c2ccccc2F)n1,i,0.8%,23%,4.3e-09,i
COc1ccc(CN(CC(=O)NCC2CCCO2)C(=O)CCC(=O)Nc2cc(C)on2)cc1 (stereo not drawn),i,1.7%,-1%,1.5e-08,i
O=C1c2ccccc2S(=O)(=O)N1Cc1cc(=O)n2ccsc2n1,i,2.1%,1%,1e-09,i
CCCCc1ccc(S(=O)(=O)Nc2cc(C)on2)cc1,i,1.4%,19%,2.8e-08,i
O=C1c2[nH]nc(-c3ccccc3O)c2C(c2ccc(F)cc2)N1CC1CCCO1 (stereo not drawn),i,-0.3%,10%,1.3e-08,i
OCCCNCc1cccc2ccccc12,i,1.4%,-3%,2.4e-08,i
C(=N\n1cnnc1)/c1ccc2c(c1)OCCO2,i,-0.8%,5%,1.3e-08,i
CC(=O)c1cccc(NC(=O)CCS(=O)(=O)c2cccc3nonc23)c1,i,-0.4%,-4%,2.7e-08,i
OCCOCCNc1ncnc2nc[nH]c12,.,-3.8%,9%,.,.
CN(Cc1ccncc1)C1CC(=O)N(c2ccc(Cl)cc2)C1=O (stereo not drawn),i,0.2%,6%,6.2e-08,i
Cc1cccc(-c2nc(CS(=O)CC(=O)NCC3CCCO3)c(C)o2)c1 (stereo not drawn),.,0.1%,?,.,.
COc1ccc(N(CC(=O)N2CCc3ccccc3C2)S(=O)(=O)c2c(C)[nH]c(=O)[nH]c2=O)cc1,.,-3.4%,9%,.,.
Cc1cc(C)c(OCC(=O)Nc2ccc3c(c2)OCO3)cc1C,i,-2.3%,26%,1e-09,i
CSCCOC(=O)c1[nH]c2c(c1C)C(=O)CC(c1ccco1)C2 (stereo not drawn),.,4.6%,9%,.,.
c1ccc(B2OC[C@@H]3OB(c4ccccc4)O[C@H]([C@@H]4COB(c5ccccc5)O4)[C@@H]3O2)cc1,i,-2.7%[11.5 µM],5%[11.4 µM],1e-09,i
Cc1noc(C)c1S(=O)(=O)N1CCCC(C(=O)NCc2ccccn2)C1 (stereo not drawn),i,0.7%,-1%,1.6e-09,i
c1csc(CNc2nc3ccccc3n2CCN2CCOCC2)c1,i,-0.1%,8%,1e-09,i
O=C(CN(C(=O)CNS(=O)(=O)c1ccccc1)C1CCCC1)NCC1CCCO1 (stereo not drawn),i,1.0%,0%,3.8e-08,i
CN(C)CCCOC(=O)c1ccc(Br)cc1,.,-1.8%,2%,.,.
COc1nc(OC)nc(N2CCC(C(=O)Nc3cccc4ccccc34)CC2)n1,i,2.1%,21%,1.7e-09,i
CC1CCCN(Cc2nc3c(c(=O)n(C)c(=O)n3C)n2CCCc2ccccc2)C1 (stereo not drawn),i,3.2%,?,4.2e-08,i
O=C(CSc1nnc(CNC(=O)c2c(F)cccc2Cl)o1)Nc1ccccc1,i,-0.6%,6%[11.4 µM],1e-09,i
C=CCNC(=O)C1CCN(c2nc(C)cc(-c3ccccc3)n2)CC1,i,1.3%,4%,2.9e-08,i
Cc1[nH]c(=S)[nH]c(=O)c1Cc1ccccc1,i,0.8%,5%[11.4 µM],7.2e-09,i
COc1ccc(OC)c(NC(=O)CSc2nnc(Cc3cccn3C)n2CCc2ccccc2)c1,i,0.7%,4%,1e-09,i
O=C(Nc1ccccc1)N1CC[C@@]2(CCCN(C(=O)c3cccc(F)c3)C2)C1,i,3.0%,-8%,2.1e-09,i
CC12C=CC3(CN(Cc4ccccc4)C(=O)C3C1C(=O)NC1CC1)O2 (stereo not drawn),i,0.0%,-3%,1e-09,i
CC(C)NC(=O)C1CCN(Cc2cnn(-c3ccccc3)c2-n2cccc2)CC1,i,-0.7%,11%,6.2e-09,i
CN(c1cccc(NS(=O)(=O)c2cccs2)c1)S(C)(=O)=O,i,-1.5%,-3%,1e-09,i
COC(=O)c1cc(=O)nc2sc(-c3ccc(F)cc3)nn12,i,-0.5%,9%,1e-09,i
COc1cccc(Nc2c(F)c(OC)c(F)c(F)c2C(=O)O)c1,i,1.3%,?,3.5e-08,i
Nn1cc(-c2ccccc2)nc1SCC(=O)NCCN1C(=O)CSC1=O,i,1.1%,7%,3.4e-08,i
CC1(C)CC(=O)C=C(Nc2cccc(O)c2)C1,.,2.7%,4%,.,.
CC(C)COC(=O)CCn1[nH]c(=O)c2ccccc2c1=O,i,1.0%,1%,1.1e-08,i
CN1CCC(NC(=O)c2cccs2)CC1,.,3.0%,-3%[11.4 µM],.,.
CCCC(=O)c1cc2cc(Cl)ccc2oc1=O,i,0.1%,?,1.5e-08,i
COc1ccc(CNC(=O)CSc2nc3nc(C)cc(C)n3n2)cc1,i,-1.1%,15%,1e-09,i
Cc1ccc2c(c1)N(CC(=O)N(Cc1ccc3c(c1)OCO3)CC1CCCO1)C(=O)C(C)O2 (stereo not drawn),i,-2.6%,?,6.5e-09,i
CCC(C)c1c(O)nc(SCC(=O)N2CCOCC2)[nH]c1=O (stereo not drawn),.,1.6%,4%,.,.
CCOc1ccccc1NC1c2ccccc2C(=O)N1c1ccc(C)cn1 (stereo not drawn),.,2.1%,8%,.,.
COc1cc(C(=O)N2CCC(NC(=O)C(Cc3ccc(C)cc3)NC(C)=O)CC2)cc(OC)c1OC (stereo not drawn),i,2.9%,-7%,1e-09,i
Cc1nc(SCC(=O)N2CCC(C(N)=O)CC2)n[nH]1,i,-1.3%,-5%,1.6e-09,i

# Structures shown so far that have an aryl thioether with sulfur outside any ring, in the order listed:
SMILES,Resorufin autofl,AID923,TSHR ag,A647 fluor,A488 autofl
N#Cc1c(SCC(N)=O)nsc1SCc1ccc(Cl)cc1,i,.,.,3.3e-08,i
Cc1sc2nc(SC(C)C)nc(N)c2c1C,.,0.9%,12%,.,.
COc1ccc(OC)c(NC(=O)CSc2nnc(-c3ccco3)n2-c2ccc(C(=O)O)cc2)c1,i,.,.,3.8e-08,i
Cn1c(SCc2nn[nH]n2)nc2c1c(=O)n(Cc1ccccc1Cl)c(=O)n2C,i,0.9%,6%,1e-09,i
CC1(C)Cc2c(sc3c2c2ncnn2c2nnc(SCC(=O)NCc4ccco4)n32)CO1,i,0.9%,-4%,3.2e-08,i
O=C(CSc1nnc(CNC(=O)c2c(F)cccc2Cl)o1)Nc1ccccc1,i,-0.6%,6%[11.4 µM],1e-09,i
COc1ccc(OC)c(NC(=O)CSc2nnc(Cc3cccn3C)n2CCc2ccccc2)c1,i,0.7%,4%,1e-09,i
Nn1cc(-c2ccccc2)nc1SCC(=O)NCCN1C(=O)CSC1=O,i,1.1%,7%,3.4e-08,i
COc1ccc(CNC(=O)CSc2nc3nc(C)cc(C)n3n2)cc1,i,-1.1%,15%,1e-09,i
CCC(C)c1c(O)nc(SCC(=O)N2CCOCC2)[nH]c1=O (stereo not drawn),.,1.6%,4%,.,.
Cc1nc(SCC(=O)N2CCC(C(N)=O)CC2)n[nH]1,i,-1.3%,-5%,1.6e-09,i

# High-throughput results from PubChem BioAssay.

# These rows are one share of the data; count on the stated rates, not on these rows.
